# Screens from PubChem.
# KCNQ2 pot: enhances the rat KCNQ2 potassium channel. CHO-K1 KCNQ2, FluxOR thallium flux fluorescence; stronger effect = higher value. B-score at 10 µM. 0.54% of 310,000 active. AID 2239;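 active = fluorescence ratio B-score at least 3 SD of library B-scores, with initial fluorescence B-score within 3 SD, cut at about 5.3 in these data; same plate scores as AID 2156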;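 note: B-score of peak minus minimum over baseline fluorescence ratio after K+ and Tl+ stimulus; positive B-score means potentiation of KCNQ2 with more thallium influx and brighter signal; only the inactives scoring about 0 or higher are listed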
# Target sequence (O88943 whole entry, looked up): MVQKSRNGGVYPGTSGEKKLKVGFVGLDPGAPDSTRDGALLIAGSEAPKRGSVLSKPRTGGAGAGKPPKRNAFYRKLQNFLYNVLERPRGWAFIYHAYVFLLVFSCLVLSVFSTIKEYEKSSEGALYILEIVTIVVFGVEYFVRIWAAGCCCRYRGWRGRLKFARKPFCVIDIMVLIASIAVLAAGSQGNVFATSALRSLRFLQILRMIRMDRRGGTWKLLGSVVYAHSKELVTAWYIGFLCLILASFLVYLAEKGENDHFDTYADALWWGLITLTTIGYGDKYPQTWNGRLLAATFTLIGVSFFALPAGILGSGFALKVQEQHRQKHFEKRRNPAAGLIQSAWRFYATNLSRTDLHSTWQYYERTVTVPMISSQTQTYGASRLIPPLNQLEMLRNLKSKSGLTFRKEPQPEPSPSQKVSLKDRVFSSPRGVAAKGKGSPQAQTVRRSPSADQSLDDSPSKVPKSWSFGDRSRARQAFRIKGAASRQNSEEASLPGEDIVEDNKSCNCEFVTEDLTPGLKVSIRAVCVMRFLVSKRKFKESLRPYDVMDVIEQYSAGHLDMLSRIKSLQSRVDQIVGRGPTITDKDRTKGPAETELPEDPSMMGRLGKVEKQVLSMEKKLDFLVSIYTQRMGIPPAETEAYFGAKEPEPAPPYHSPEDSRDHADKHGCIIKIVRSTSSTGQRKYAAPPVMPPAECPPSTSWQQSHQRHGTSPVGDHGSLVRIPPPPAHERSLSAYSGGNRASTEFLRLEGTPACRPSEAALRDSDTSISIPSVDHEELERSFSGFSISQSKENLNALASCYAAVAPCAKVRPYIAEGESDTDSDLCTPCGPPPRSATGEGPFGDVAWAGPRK
# KCNQ2 pot baseline: second read-out of KCNQ2 pot, no call of its own (marks repeat the call); B-score; compound at 10 µM; measured here: initial fluorescence intensity artifact check;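 brightness before thallium and not channel activity; 0 = typical well and far values either way flag optical interference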
# * marks the source's active call; other numbers are inactive results. An excerpt. The share of hits here may be higher or lower than overall.
KCNQ2 pot	KCNQ2 pot baseline	SMILES
0.7	0.52	CC(C)CC(=O)N1CCN(S(=O)(=O)c2ccc(Cl)cc2)CC1
0.41	-2.24	Cc1ccccc1-c1ccc(/C=C2/SC(N3CCOCC3)=NC2=O)o1
1.01	-0.8	Cn1nccc1C(=O)OCC(=O)Nc1nc(-c2ccccc2)cs1
1.29	-1.88	COc1cc(CNCc2ccncc2)cc(OC)c1OC
1.09	-0.47	Cn1c(NC(=O)C[n+]2cc(-c3ccccc3)n3c2CCC3)cc(=O)n(C)c1=O
1.66	-0.28	COc1ccc(Cc2nc(-c3ccc(NC(=O)c4cccnc4)cc3)no2)cc1
0.63	0.75	Cn1cccc1C(C#N)c1ncc(C(F)(F)F)cc1Cl (stereo not given)
0.01	0.92	CCOC(=O)/C=C1\CC(=O)Nc2nonc2N1
0.13	0.6	O=C1C2CC=CCC2C(=O)N1c1n[nH]c(Cc2ccccc2)n1 (stereo not given)
2.66	-0.34	COc1cc(C(C(=O)NC2CCCCC2)N(Cc2ccco2)C(=O)c2cnccn2)cc(OC)c1OC (stereo not given)
0.04	-1.31	CC(=O)Nc1cc(NC(C)=O)cc(C(=O)N2CCCC3CCCCC32)c1 (stereo not given)
0.4	-0.08	COc1ccc(Cc2nnc(Nc3ccccc3)s2)cc1Br

KCNQ2 pot	KCNQ2 pot baseline	SMILES
0.07	0	CCOC(=O)C(=CNc1ccc(C(F)(F)F)cc1Cl)C(=O)OCC
1.78	-0.92	Cc1nn(CC(=O)N2CCC(C)CC2)c(=O)c2nn(-c3ccccc3)c(C)c12
0.01	-0.28	O=C(CSc1nnc(-c2ccc(Cl)s2)o1)N1CCc2ccccc21
0.46	1.64	CCCCOc1ccc(C(=O)OCC(=O)Nc2cc(C)on2)cc1
1.59	-0.06	COc1ccc(CN2CCC(=O)N([C@H](CO)Cc3ccccc3)CC2)cc1
0.09	0.54	CC(C)CC(=O)c1c[nH]c(C(=O)O)c1
1.99	0.75	O=c1[nH]c(CN2CCN(c3ccc(O)cc3)CC2)nc2scc(-c3ccc(Cl)cc3)c12
0.46	0.78	CCc1cc(C(=O)OC)c(NC(=O)c2ccoc2C)s1
0.41	-0.01	CCCC(=O)Nc1nnc(-c2ccccc2)o1
0.97	0.57	O=C(NNS(=O)(=O)c1ccc(Cl)cc1)c1sccc1-n1cccc1
0.92	-0.34	CN1CCN(c2c(F)cc3c(=O)c(C(=O)O)cn4c3c2OCN4C)CC1
0.79	0.01	O=[N+]([O-])c1ccc2ncnc(N3CCN(Cc4ccc5c(c4)OCO5)CC3)c2c1

KCNQ2 pot	KCNQ2 pot baseline	SMILES
0.05	0.66	COc1cccc(OC)c1C(=O)NC(=S)NCc1cccnc1
0.37	-0.48	O=C(NNC(=S)NCC1CCCO1)c1cc(Br)ccc1Cl (stereo not given)
1.59	1.72	Cc1cc(C(=O)N/N=C/c2ccc(OC(=O)c3ccccc3Br)cc2)n[nH]1
1.05	1.86	O=C(CBr)Nc1c2c(nn1-c1ccccc1)CSC2
10.8*	1.02*	O=C(Nc1ccc(Cl)c(Cl)c1)Nc1ccccc1O
0.07	-0.5	O=C(NCc1ccc(Cl)cc1)C1CCN(C(=O)Cc2ccccc2)CC1
0.04	-1.03	Cc1cc(C(=O)CSc2ccc(F)cc2)cc(C)c1O
0.01	-0.02	O=C(Nc1cccc(N2C(=O)C3C4C=CC(C4)C3C2=O)c1)c1cccs1 (stereo not given)
2.68	0.09	O=C1CC(c2ccc(Cl)cc2)c2c(O)cc(O)cc2O1 (stereo not given)
0.36	0.05	CCN(CC)CCN(C(=O)CN1C(=O)c2ccccc2C1=O)c1nc2cc3c(cc2s1)OCO3
0.18	-2.08	O=C(Nc1ccc(F)cc1F)c1cc2ncc(Br)cn2n1
0.03	-0.91	CCN(CC)CCCNC(=O)C(C)n1c2ccccc2c2nc(=O)cc(C)n21 (stereo not given)

KCNQ2 pot	KCNQ2 pot baseline	SMILES
2.25	-0.53	CC1=NN(C(N)=S)C(=O)C1N=Nc1ccccc1C(=O)O (stereo not given)
0.01	1.41	CC(C)CNC(=O)COC(=O)/C=C/c1ccco1
1.38	2.01	COc1cccc(C(=O)Oc2ccc(/C=N/Nc3ccc(C(=O)O)cc3)cc2OC)c1
2.76	-0.2	CCn1c(O)c(N=Nc2ccc(Cl)c(C(=O)O)c2)c2ccccc21
0.05	0.12	CSc1nnc(C)c(=O)n1COC(=O)c1ccc(S(=O)(=O)N2CCCC2)cc1
1.19	-0.51	O=C(CCc1ccccc1)Nc1nc2nc(-c3ccccc3)cc(=O)n2[nH]1
0.03	-1.47	Nn1c(C2CCCCC2)nc2ccccc2c1=O
0.15	-1.76	COc1ccc(C2=NNC(c3cccnc3)=Nc3ccc(OC)cc32)cc1
1.14	1.99	COCc1cc(C)nc2sc(C(=O)Nc3nccs3)c(N)c12
2.01	-0.99	CCCSc1nc2ccccc2n1CC(=O)O
0.57	-1.59	O=C(NCC1CCCO1)c1ccc2c(c1)N(Cc1ccc(F)cc1)CCS2 (stereo not given)
0.85	0.61	CC(=O)OC(C(=O)N1CCOCC1)c1c(F)cccc1F (stereo not given)

KCNQ2 pot	KCNQ2 pot baseline	SMILES
0.09	-0.36	CC(=O)c1ccccc1NC(=O)COC(=O)/C=C/c1ccc(OC(F)F)cc1
0.75	1.12	Cc1ccc2nc(-c3ccncc3)c(NC3CCCC3)n2c1
0.24	-2.36	CC1CCN(c2ccc(C(=O)N3CCOCC3)cc2[N+](=O)[O-])CC1
0.14	3.11	COc1cccc(NC(=O)CSc2nc3c(oc4ccccc43)c(=O)[nH]2)c1
1.24	0.59	COc1ccc(OCc2cc(C(=O)NC(C)Cc3cnccn3)no2)c(Cl)c1 (stereo not given)
0.92	-1.49	CCCN(CC(=O)Nc1ccccc1C)C(=O)CCNC(=O)c1ccccc1Cl
0.95	-0.2	CC(C)C1N=C2c3ccccc3N=C(SCC#N)N2C1=O (stereo not given)
0.93	0.86	CCCCCCc1c(C)c2ccc(OCC(=O)N3CCC[C@H]3C(=O)O)c(C)c2oc1=O
0.68	-0.32	Nc1c(N2CCCC2)c2ccccc2oc1=O
0.12	0.19	COCCCn1c(-c2ccccc2)nc2ccccc2c1=O
0.67	0.35	C[C@H](CO)NC(=O)[C@H](C)[C@H]1C[C@]1(C)[C@H](NC(=O)OCc1ccccc1)c1ccccc1
0.08	3.91	Cc1cc(C(=O)OCC(=O)N2CCOCC2)ccc1[N+](=O)[O-]

KCNQ2 pot	KCNQ2 pot baseline	SMILES
0.18	0.59	COC(=O)c1c(NC(=O)CSc2ncnc3[nH]ncc23)sc2c1CCC2
2.39	0.74	O=C(Nc1ccc(F)cc1)c1nc(S(=O)(=O)Cc2ccccc2)ncc1Cl
0.01	-1.93	CC(=O)Nc1ccccc1OC(C)C(=O)NC(C)c1ccc(F)cc1 (stereo not given)
1.57	-2.54	C=C(C)CSc1nc(C)c(Cc2ccccc2)c(=O)[nH]1
0.33	3.7	Cc1ccc(-n2c(-c3ccncc3)nnc2-c2cccs2)cc1
0.36	-3.32	COc1ccc(CN2CCN(C(=O)c3ccco3)CC2)cc1OC
2.27	-0.1	Cc1ccc(C)n1NC(=O)c1ccccc1O
0.02	-0.48	O=C(CC1C(=O)NCCN1C1CCCC1)NCc1cccc(OC(F)(F)F)c1 (stereo not given)
1.7	-0.97	CCS(=O)(=O)NCCCc1ccccc1
0.09	1.13	Cc1cc(C)c(S(=O)(=O)N2CCCC(C(=O)NCCC3=CCCCC3)C2)c(C)c1 (stereo not given)
0.73	0.31	Cc1ccc(S(=O)(=O)Nn2c(O)c(C=C3N=c4ccccc4=N3)sc2=S)cc1
0.8	0.85	COCCN(CCOC)C(=O)CN1C(=O)NC(Cc2c[nH]c3ccccc23)C1=O (stereo not given)

KCNQ2 pot	KCNQ2 pot baseline	SMILES
0.28	-1.42	O=c1oc2ccccc2c2[nH]ccc12
2.15	-1.85	CCn1c(N)c(Br)c(=O)[nH]c1=O
1.18	-0.25	Nc1nc(NCc2ccc(Cl)cc2)nc(NCCO)c1[N+](=O)[O-]
2.9	-1.25	COC(=O)c1c(C)[nH]c(C(=O)OCC(=O)N2c3ccccc3NC(=O)C2(C)C)c1C
2.13	-0.74	COc1ccc(NC(=O)C2=C(C)NC(=O)NC2c2cccc(OC)c2OC)c(OC)c1 (stereo not given)
2.14	-0.53	CC(=O)c1ccc(COC(=O)c2cc3ccccc3oc2=O)cc1
1.18	-1.9	Fc1ccc2nc(Nc3nc4cc5c(cc4s3)OCCO5)sc2c1
1.87	-1.02	CCOC(=O)C1CCN(C(=O)CN2C(=O)COc3ccc(C(C)(C)C)cc32)CC1
0.35	-0.44	COc1cccc(-c2nnc(SC(C(=O)c3c[nH]c4ccccc34)c3ccccc3)n2C)c1 (stereo not given)
2.51	-2.1	COc1ccccc1N1CCN(C(=O)C2CCN(C(=O)c3ccccc3C)CC2)CC1
0.67	-0.92	CC(=O)c1ccc(N2CCN(C(=O)COc3ccccc3F)CC2)c(F)c1
1.54	-1.3	Cc1cc(C)c2nc(C(F)(F)F)nc(NCCCN3CCCC3=O)c2c1

KCNQ2 pot	KCNQ2 pot baseline	SMILES
1.2	-1.12	CCOC(=O)NC(=O)C(/C=N/c1sccc1C(=O)OC)=C(\C)O
0.75	-1.71	CCCCn1cnc2cc(NCc3ccncc3)ccc21
0.28	-0.74	COC(=O)NC1CCC(CC2CCC(NC(=O)OC)CC2)CC1 (stereo not given)
0.55	3.02	CC1(C)CC(=O)C/C(=N\NC(=O)c2cccs2)C1
2.28	0.64	O=C(COC(=O)CSc1ccc([N+](=O)[O-])cc1)NC1CCCCCCC1
2.01	0.34	O=C1CS/C(=N\NC(=O)c2ccccc2)N1
1.11	1.4	CC(OC(=O)c1ccc(Cl)nc1)C(=O)NCc1ccc2c(c1)OCO2 (stereo not given)
0.71	-0.1	CCOC(=O)Nc1ccc2c(CNC(C)c3ccccc3OC)cc(=O)oc2c1 (stereo not given)
0.84	0.43	COc1ccc(Cc2nnc(NC(=O)C3CC(=O)N(CCc4ccc(F)cc4)C3)s2)cc1OC (stereo not given)
2.39	-1.05	CCCCC(=O)Nc1ccccc1C(=O)N1CCOCC1
2.01	-0.32	Cc1ccc[n+](/C(=C\C(=C=[N-])C#N)C(=O)c2ccc(Cl)cc2)c1
1.33	0.57	CCc1cc(=O)oc2c(CNCc3ccc(OC)cc3OC)c(O)c(Cl)cc12

# Laid out differently: results already given
O=C1CS/C(=N\NC(=O)c2ccccc2)N1
  KCNQ2 pot = 2.01	KCNQ2 pot baseline = 0.34

CCOC(=O)Nc1ccc2c(CNC(C)c3ccccc3OC)cc(=O)oc2c1 (stereo not given)
  KCNQ2 pot = 0.71	KCNQ2 pot baseline = -0.1

CCOC(=O)NC(=O)C(/C=N/c1sccc1C(=O)OC)=C(\C)O
  KCNQ2 pot = 1.2	KCNQ2 pot baseline = -1.12

CCCCC(=O)Nc1ccccc1C(=O)N1CCOCC1
  KCNQ2 pot = 2.39	KCNQ2 pot baseline = -1.05

# Full records as entered above:
# CCCCn1cnc2cc(NCc3ccncc3)ccc21 reads KCNQ2 pot = 0.75; KCNQ2 pot baseline = -1.71
# CCOC(=O)Nc1ccc2c(CNC(C)c3ccccc3OC)cc(=O)oc2c1 (stereo not given) reads KCNQ2 pot = 0.71; KCNQ2 pot baseline = -0.1
# O=C(COC(=O)CSc1ccc([N+](=O)[O-])cc1)NC1CCCCCCC1 reads KCNQ2 pot = 2.28; KCNQ2 pot baseline = 0.64

# (list continues)
KCNQ2 pot	KCNQ2 pot baseline	SMILES
0.42	0.45	COc1c(C)cc(Br)cc1C(=O)Nc1ccc(S(N)(=O)=O)cc1
0.49	0.57	Cc1ccc2c(Cl)c(C(=O)N/N=C/c3cccn3C)sc2c1
1.85	0.2	Fc1ccccc1-c1nc(NCc2ccccc2)c2ccccc2n1
2.04	-0.26	CC(=O)c1c(C)[nH]c(C(=O)Nc2ccccn2)c1C
0.72	2.15	CCN(CC)C(=O)NC(c1ccc(C)c(F)c1)C(Cl)(Cl)Cl (stereo not given)
0.1	-0.3	O=C(/C=C/c1ccco1)Nc1nc(-c2ccccc2)cs1
2.33	0.7	COCCCn1c(=O)c2ccccc2n(CC(=O)N2CCCc3ccccc32)c1=O
0.71	1.83	Cc1cc(N/N=C(/CCC(=O)O)C(=O)O)nc2ccccc12
0.02	1.59	Cn1nc(C(=O)Nc2ccc3c(c2)OCO3)c2ccccc2c1=O
1.73	-0.58	COCCn1c(C)cc(C(=O)COc2nc3ccccc3nc2C)c1C
1.79	-0.13	O=C(NCC1CCCO1)Nc1cc(Cl)cc(Cl)c1 (stereo not given)
0.08	0.03	COc1ccc(/C=N/Nc2ncnc3sc4c(c23)CCCC4)cc1OC

KCNQ2 pot	KCNQ2 pot baseline	SMILES
1.98	1.97	CC1CN(S(=O)(=O)c2ccc(NC(=O)c3ccco3)cc2)CC(C)O1 (stereo not given)
0.32	-1.32	Cc1ccc(NC(=O)NNC(=O)c2cc3ccccc3cc2O)cc1
0.34	0.33	CC(C)[C@H](NC(=O)NCCc1ccccc1)C(=O)O
0.55	-0.22	COc1ccc(NC(=O)Cc2nc3ccccc3[nH]2)cc1
1.67	-0.25	S=c1[nH]nc(-c2cccc3ccccc23)n1-c1cccnc1
0.09	-1.33	CCCOC(=O)c1ccc(Nc2cc(C)nc3ncnn23)cc1
0.72	1.29	CC1CCC(NC(=O)CN(C)S(=O)(=O)c2ccc3c(c2)c(=O)n(C)c(=O)n3C)CC1 (stereo not given)
1.14	-0.34	Cc1ccc(-n2c(C)nnc2SCC(=O)NC2CC2)cc1
0.25	1.37	CCCCN(C(=O)C1CCN(C(=O)c2ccccc2C)CC1)c1c(N)n(CCCC)c(=O)[nH]c1=O
2.1	-1.32	O=C(NC1CCS(=O)(=O)C1)C1CCCCN1S(=O)(=O)c1ccc(Cl)cc1 (stereo not given)
1.28	-0.86	CCOC(=O)C1=C(C)NC(C)=C(C(=O)OCC)C1/C=C/c1ccccc1OC
